Source: PubChem
Sa growth 42C = S. aureus growth inhibition. S. aureus RN4220 growth, OD600, 20 h, 42 °C; stronger effect = lower value. AID 720641. 170,000 tested, 0.53% active. relative growth, % (test concentration not listed);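 active = growth at 42 °C up to 50% and 20 or more points under that at 30 °C, or under 10% at both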;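 note: 300 nL library stock went into each well; scaled to the means of positive and negative controls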
GIV-Gai inh = blocks GIV peptide binding to rat Galpha-i3; Galpha-i3/FITC-GIV peptide fluorescence polarization, 90 min; stronger effect = lower value; scaled: aluminum fluoride 0%, vehicle 100%; percent of control (FP), % (no concentration beside the values); P08753; 210,000 tested, 0.42% active;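 active = replicate mean at 85% of control or lower, very high polarization wells dropped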;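 note: wells of about 15 µL received 100 nL stock; the first replicate is given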
Target sequence (P08753 whole entry, looked up): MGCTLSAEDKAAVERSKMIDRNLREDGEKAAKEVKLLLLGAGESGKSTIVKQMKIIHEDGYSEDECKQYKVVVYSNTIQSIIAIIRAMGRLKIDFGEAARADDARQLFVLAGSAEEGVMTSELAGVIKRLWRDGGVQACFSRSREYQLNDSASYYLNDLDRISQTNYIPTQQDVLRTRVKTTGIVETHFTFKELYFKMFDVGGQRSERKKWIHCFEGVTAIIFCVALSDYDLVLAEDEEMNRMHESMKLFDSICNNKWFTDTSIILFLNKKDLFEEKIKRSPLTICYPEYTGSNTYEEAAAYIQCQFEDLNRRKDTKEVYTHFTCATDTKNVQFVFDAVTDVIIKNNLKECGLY
HCMV UL50-53 inh = cytomegalovirus nuclear egress complex inhibition; HTRF UL50-UL53 interaction, normalized percent inhibition; inhibition, % (test concentration not listed); 190,000 tested, 0.15% active;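 active = both replicates at 50% or more, plus weaker picks with an unusually low signal ratio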;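 note: stock transfer was 100 nL into about 20 µL; 0% = negative control wells and 100% = wells with untagged competitor protein; inactives centre near -12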
Sa growth 42C second temp = also measured in Sa growth 42C; calls as there; relative growth, %; measured here: growth at 30 °C;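 optical density after 20 h as mean of two plates; 100% = untreated growth and lower means inhibition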
Numbers without * were called inactive; x = not tested or not shown; & = joins results of further samples. Not a hit list. About 0.8% of those tested had a hit in this group.

SMILES	Sa growth 42C	Sa growth 42C second temp	GIV-Gai inh	HCMV UL50-53 inh
Cc1cc(C)nc(NS(=O)(=O)c2ccc(NC(=O)c3ccccc3O)cc2)n1	89	105	107	1
Cc1ccc(CNC(=O)c2nc(-c3cn(-c4ccccc4)nc3C)no2)cc1	x	x	106	10
O=C(CSc1nnc(-c2cccs2)n1Cc1ccco1)Nc1ccc2c(c1)OCO2	124	97	100	-15
Nc1nc2ccccc2o1	81	92	x	-26
CCOC(=O)c1c(NC(=O)c2ccc3c(c2)OCO3)sc(C(=O)Nc2ccc(OC)cc2OC)c1C	x	x	107	-3
Cc1c(/C=C2\SC(=Nc3ccccc3)N(C3CCCC3)C2=O)c2ccccc2n1CC(N)=O	112	83	x	-12
C=C1CCC(O)C2(C)CCC3C(C)C(=O)OC3C12O (configuration not stated)	94	93	100	-10
COc1ccc(-n2ncc(C(=O)NCc3cccs3)c2C2CCN(C(=O)OC(C)(C)C)CC2)cc1	89	88	108	x
O=C(/C=C1\OC(=O)c2ccccc21)Oc1cccc(C(F)(F)F)c1	90	81	100	-11
O=S(=O)(Nc1ccccc1)c1cccc2cccnc12	113	91	101	x
O=C1c2cccc3cccc(c23)N1CO	92	79	x	-48
CCC(=O)Nc1ccc(NC(=O)c2ccc(-c3ccc(Cl)cc3)o2)cc1	103	100	103	4
c1ccc2nc(Sc3ncn[nH]3)c(Sc3ncn[nH]3)nc2c1	89	87	x	-48
Cc1cc(/C=N/NC(=O)C(C)Oc2ccc(C#N)cc2)c(C)n1-c1nccs1 (configuration not stated)	95	97	x	-26
Cc1ccc(-n2nc3c([n+]2[O-])CCc2nonc2-3)cc1	88	85	x	-14
CCCCNCc1cc(=O)n2[nH]c(NCc3ccc(C)cc3)nc2n1	x	x	98	-20
O=C(Nc1ccnn1C1CCCC1)c1ccc(Br)cc1	x	x	104	3
OCCCNc1ncnc2c1c(-c1ccccc1)cn2-c1ccccc1	61	47	118	-28
COc1ccc(NC(=O)CCN2CCN(c3cccc(Cl)c3)CC2)cc1	121	99	105	-12
CCNC(=O)c1cc(C)nc2c1c(=O)n(C)c(=O)n2C	x	x	104	-18
CC(C)NC(=O)C1CCC(=O)N1Cc1ccc(F)cc1 (configuration not stated)	108	89	96	7
Cn1nnc2cc(C(=O)Nc3ccc(S(N)(=O)=O)cc3)ccc21	x	x	96	2
CNc1cccc(-c2ccc3nnc(C)n3n2)c1	101	85	105	-54
CN(C)c1cccc(-c2nn3c(-c4ccc5ccccc5n4)nnc3s2)c1	x	x	110	-48
COC(=O)C1(c2ccccc2)NC(c2ccc(O)cc2)C2C(=O)N(c3ccc4c(c3)OCCO4)C(=O)C21 (configuration not stated)	127	73	102	-8
CCCCn1c(-c2ccc(OCC)cc2)cnc1NCc1cccc(Cl)c1	111	0	100	x
CC1CCC(NC(=O)CCc2nc3sc4c(c3c(=O)[nH]2)CCCCC4)CC1 (configuration not stated)	x	x	101	-21
Clc1ccc(-c2csc(-c3ccno3)n2)cc1Cl	100	83	109	-25
CC(C)N1C(=O)CN(NC(=O)c2cc3c(s2)CCCC3)C1=O	90	98	108	12
COc1ccc(Cn2ccc3nc(C)c(C(=O)N4CCN(c5ccccc5OC)CC4)cc3c2=O)cc1	71	89	98	x
O=C(O)/C=C/c1ccc(OCc2cn3ccccc3n2)cc1	74	97	x	-66
O=C(CSc1nnc(COc2ccccc2)o1)Nc1cc(C(F)(F)F)ccc1Cl	113	88	104	-14
COc1cccc(NC(=O)Cn2nnc(C(=O)NCCc3ccccc3)c2N)c1	98	91	111	x
CCOC(=O)c1[nH]c2ccc(OC)cc2c1NC(C)=O	x	x	98	-22
Cc1occc1C(=O)N=Nc1cc(C(C)(C)C)c(O)c(C(C)(C)C)c1	1.4*	0.4*	100	-17
COc1cc(OC)c(NS(=O)(=O)c2ccc3c(c2)CCCN3C(C)=O)cc1Cl	74	92	99	x
CC1(C(=O)NC2CCCC2)COc2c(oc3ccccc23)C(=O)N1Cc1ccccc1F (configuration not stated)	x	x	104	-33
CC(C)C(=O)Nc1ccc2nc(SCC(=O)N3CCOCC3)sc2c1	100	87	105&98	-8&-13
CCOc1ccc2c(c1)[C@@H]1C=CC[C@@H]1[C@H](c1ccccc1Cl)N2	80	67	102	-28
CNc1ccc2c(c1)OCCO2	92	81	104	-22
COc1cccc(CNC(=O)Cn2ncn3c(cc4ccccc43)c2=O)c1	104	88	94	-32
Cn1nc(-c2ccc(C(=O)N3CCN(c4ccccc4)CC3)cc2)c2ccccc2c1=O	x	x	101	-14
O=C1CCSc2ccc(S(=O)(=O)NCc3ccccn3)cc2N1	x	x	108	-18
CC(C)n1cnc2nc(CSc3ccc(NC(=O)c4ccc(F)cc4)cc3)cc(=O)n21	x	x	102	-38
CC(=O)c1ccc(NC(=O)Cn2c(=O)nc(-c3ccccc3)c3ccccc32)cc1	78	82	101	x
O=C(NC(C(=O)c1ccccc1)n1cnccc1=O)c1ccccc1 (configuration not stated)	108	89	106	-14
O=C1OC(c2ccccc2)=N/C1=C\N1CCCCC1	95	78	97	x
Cc1cc(C)c2c3c(sc2n1)C1(CCSCC1)C(C#N)=C(N)O3	84	98	104	-11
CS(=O)(=O)N1CCCC1c1ccccc1Cl (configuration not stated)	x	x	94	-18
Cc1nc(-c2cc(Cl)c(Cl)s2)cs1	109	95	102	3

Next section.
SMILES	Sa growth 42C	Sa growth 42C second temp	GIV-Gai inh	HCMV UL50-53 inh
O=C(CC1(O)C(=O)N(CN2CCOCC2)c2ccccc21)c1ccccc1 (configuration not stated)	103	100	107	-10
COc1ccc(NC(=O)c2nnc(SCC(=O)NCc3ccccn3)s2)cc1	x	x	101	-27
Fc1nc(N2CCOCC2)c2c(c1Cl)Oc1ccccc1O2	92	87	110	x
Nc1cccc(/C=C/C(=O)O)c1	125	85	x	-19
CCSc1nnc2c3ccccc3ncn12	94	78	x	-30
CNC(=S)NCc1ccc(Cl)cc1	84	94	105	-5
O=C(CSc1nc2ncccc2o1)NCC1CCCO1 (configuration not stated)	x	x	105	-9
CC(=O)N1CCc2c(sc3c2c(=O)n(-c2ccc(F)cc2)c(=O)n3Cc2cc(C)ccc2C)C1	104	84	102	-26
Cc1cccc(OCCn2c(-c3ccc(Cl)cc3)nc3ccccc3c2=O)c1C	98	86	107	-23
CC(=O)N1CCc2cc(Br)c(S(=O)(=O)NCc3nc4nc(C)cc(C)n4n3)cc21	x	x	103	-9
CCOc1ccc(-n2nc3cc(C)c(NC(=O)CC)cc3n2)cc1	116	95	109	-7
COc1ccccc1C(=O)Nc1ccc2c(c1)nc1n2CCN(Cc2ccccc2)C1	x	x	98	-23
O=C(c1ccc2c(c1)N(Cc1cccc(F)c1)C(=O)c1ccccc1S2)N1CCC2(CC1)OCCO2	110	89	106	x
COc1ccccc1Oc1ccc(N/C=C/C(=O)c2ccc(C)o2)cc1	104	97	140	-14
O=C(CC1CCN(S(=O)(=O)c2ccc(Cl)cc2)CC1)N1CCCCC1	x	x	102	3
Cc1ccc(-n2c(SCC(N)=O)nc3c([nH]c4ccccc43)c2=O)cc1	115	101	111	x
CC(C)C(=O)Nc1nnc(S(=O)(=O)N2c3ccccc3CC2C)s1 (configuration not stated)	116	96	105	-18
Cc1cccc(NC(=S)N2CCn3cccc3C2c2cccs2)c1 (configuration not stated)	132	83	111	x
O=C(NCC1CCCO1)C1CCCN(c2ccnc(-c3ccc(F)cc3)n2)C1 (configuration not stated)	x	x	108	-30
COC(=O)c1ccc(CNC(=O)CSC2=NCCS2)cc1	118	83	x	-6

Laid out differently: 25 of the compounds above
SMILES | Sa growth 42C | Sa growth 42C second temp | GIV-Gai inh | HCMV UL50-53 inh
O=C(NC(C(=O)c1ccccc1)n1cnccc1=O)c1ccccc1 (configuration not stated) | 108 | 89 | 106 | -14
O=C1OC(c2ccccc2)=N/C1=C\N1CCCCC1 | 95 | 78 | 97 | x
Cc1cc(C)c2c3c(sc2n1)C1(CCSCC1)C(C#N)=C(N)O3 | 84 | 98 | 104 | -11
CS(=O)(=O)N1CCCC1c1ccccc1Cl (configuration not stated) | x | x | 94 | -18
Cc1nc(-c2cc(Cl)c(Cl)s2)cs1 | 109 | 95 | 102 | 3
O=C(CC1(O)C(=O)N(CN2CCOCC2)c2ccccc21)c1ccccc1 (configuration not stated) | 103 | 100 | 107 | -10
COc1ccc(NC(=O)c2nnc(SCC(=O)NCc3ccccn3)s2)cc1 | x | x | 101 | -27
Fc1nc(N2CCOCC2)c2c(c1Cl)Oc1ccccc1O2 | 92 | 87 | 110 | x
Nc1cccc(/C=C/C(=O)O)c1 | 125 | 85 | x | -19
CCSc1nnc2c3ccccc3ncn12 | 94 | 78 | x | -30
CNC(=S)NCc1ccc(Cl)cc1 | 84 | 94 | 105 | -5
O=C(CSc1nc2ncccc2o1)NCC1CCCO1 (configuration not stated) | x | x | 105 | -9
CC(=O)N1CCc2c(sc3c2c(=O)n(-c2ccc(F)cc2)c(=O)n3Cc2cc(C)ccc2C)C1 | 104 | 84 | 102 | -26
Cc1cccc(OCCn2c(-c3ccc(Cl)cc3)nc3ccccc3c2=O)c1C | 98 | 86 | 107 | -23
CC(=O)N1CCc2cc(Br)c(S(=O)(=O)NCc3nc4nc(C)cc(C)n4n3)cc21 | x | x | 103 | -9
CCOc1ccc(-n2nc3cc(C)c(NC(=O)CC)cc3n2)cc1 | 116 | 95 | 109 | -7
COc1ccccc1C(=O)Nc1ccc2c(c1)nc1n2CCN(Cc2ccccc2)C1 | x | x | 98 | -23
O=C(c1ccc2c(c1)N(Cc1cccc(F)c1)C(=O)c1ccccc1S2)N1CCC2(CC1)OCCO2 | 110 | 89 | 106 | x
COc1ccccc1Oc1ccc(N/C=C/C(=O)c2ccc(C)o2)cc1 | 104 | 97 | 140 | -14
O=C(CC1CCN(S(=O)(=O)c2ccc(Cl)cc2)CC1)N1CCCCC1 | x | x | 102 | 3
Cc1ccc(-n2c(SCC(N)=O)nc3c([nH]c4ccccc43)c2=O)cc1 | 115 | 101 | 111 | x
CC(C)C(=O)Nc1nnc(S(=O)(=O)N2c3ccccc3CC2C)s1 (configuration not stated) | 116 | 96 | 105 | -18
Cc1cccc(NC(=S)N2CCn3cccc3C2c2cccs2)c1 (configuration not stated) | 132 | 83 | 111 | x
O=C(NCC1CCCO1)C1CCCN(c2ccnc(-c3ccc(F)cc3)n2)C1 (configuration not stated) | x | x | 108 | -30
COC(=O)c1ccc(CNC(=O)CSC2=NCCS2)cc1 | 118 | 83 | x | -6

Going on with the list.
SMILES	Sa growth 42C	Sa growth 42C second temp	GIV-Gai inh	HCMV UL50-53 inh
CCOC=C(C#N)C#N	76	87	x	4
O=C(Nc1ccc(F)cc1F)C1CCN(C(=O)c2ccc(-c3noc(C4CC4)n3)cc2)CC1	x	x	109	3
Cc1ccn2c(Nc3ccc4c(c3)OCCO4)c(-c3ccc(N(C)C)cc3)nc2c1	108	94	96	56
O=C(Nc1ccc(F)cc1)c1ccc(-n2nc(OCc3cccc(F)c3)ccc2=O)cc1	x	x	103	14
CC1CN(C2CCCCC2)CCC1=O (configuration not stated)	94	81	95	-16
CCS(=O)(=O)N1CCN(c2cc(N3CCOCC3)nc(C)n2)CC1	x	x	100	-1
O=C(NCC1CCCO1)c1cccc2c1OCCCO2 (configuration not stated)	99	90	98	1
O=S1(=O)N=C2CCCCCN2C(c2ccccc2OCc2ccccc2)N1 (configuration not stated)	86	66	x	-24
CC1CCN(S(=O)(=O)c2ccc3c(c2)CCC(=O)N3CC(=O)NC2CCCCC2)CC1	x	x	106	-23
CCN(CC)CCCNc1nnc(Cc2cccnc2)c2ccccc12	89	87	101	3
O=C(NCc1ccc(Cl)cc1)C1CCC(CNS(=O)(=O)c2ccc(Cl)cc2)CC1 (configuration not stated)	102	83	100	x
Cc1ccccc1-c1noc(-c2cc(-c3ccc(C(C)C)cc3)n[nH]2)n1	x	x	103	-22
COC(=O)c1cnc(NC2CCCCC2)c2ccccc12	80	71	100	-2
CN=C1NC(=O)CC(C(=O)Nc2ccc3ccccc3c2)S1 (configuration not stated)	72	91	103	x
CCOC(=O)N1CCC(NC(=O)c2cc(C(=O)Nc3ccc(F)cc3F)ccc2CO)CC1	94	84	107	-29
Cc1ccc(S(=O)(=O)N2CCCCC2C(=O)N2CCN(c3ccccc3F)CC2)cc1 (configuration not stated)	x	x	103	-26
CCCC(=O)Nc1c(C)nc(Nc2ccc(C)cc2)nc1Nc1ccc(C)cc1	x	x	104	-13
CCOC(=O)/C(C#N)=N/Nc1cc(C(N)=O)c(Cl)cc1Cl	99	83	105	-21
